# HSV replic up: enhancers of HSV replication in host cells, fold increase, host cell viability | HSV replication augmentation in cells | maximum fold increase | 220,000 compounds, 0.005% hits | AID 1956, 2009;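 active = peak rise of 1.5-fold or more in the series; inconclusive = self-fluorescent or not available for retest; tested in PC3 cells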;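 note: first round at 10 µM; read as green reporter fluorescence; hits show the peak of a series up to 25 µM; 1 = signal of infected wells without compound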
# RGS16-Gao: modulators of RGS16 binding to Galphao, primary screen, biochemical, human proteins, multiplexed bead flow cytometry | AID 1441, 2008 | Regulator of G-protein signaling 16 (Homo sapiens) + Guanine nucleotide-binding protein … | bead-based flow cytometry RGS16-Galphao binding, fluorescence; actives lie on both sides | 220,000 compounds, 0.38% hits | binding response (% of control), % at 10 µM;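 active = below 25% or above 175%, edge rows of some plates excepted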;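 note: Galphao activated by GDP with aluminum fluoride before binding; 100% = wells without compound and 0% = beads without RGS; some results beyond the cut were filed as inactive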
# Target sequence (O15492 whole entry, looked up): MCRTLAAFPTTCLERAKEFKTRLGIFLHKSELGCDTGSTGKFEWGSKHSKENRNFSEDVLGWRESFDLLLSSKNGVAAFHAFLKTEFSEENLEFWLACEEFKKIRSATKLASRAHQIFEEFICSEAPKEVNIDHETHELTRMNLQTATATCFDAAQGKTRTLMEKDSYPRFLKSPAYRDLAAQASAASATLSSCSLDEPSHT
# Target sequence (P09471 whole entry, looked up): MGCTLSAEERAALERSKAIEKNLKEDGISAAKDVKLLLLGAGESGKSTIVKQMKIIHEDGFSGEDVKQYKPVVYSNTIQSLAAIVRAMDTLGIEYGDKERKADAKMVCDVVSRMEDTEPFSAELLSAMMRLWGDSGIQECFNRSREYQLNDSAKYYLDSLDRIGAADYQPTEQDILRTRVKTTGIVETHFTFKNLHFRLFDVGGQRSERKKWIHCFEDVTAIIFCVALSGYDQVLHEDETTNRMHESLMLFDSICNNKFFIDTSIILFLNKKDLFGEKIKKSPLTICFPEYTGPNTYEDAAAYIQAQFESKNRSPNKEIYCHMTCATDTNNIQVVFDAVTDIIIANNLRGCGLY
# GALR2 agonist: GALR2 receptor agonists, primary screen, cell-based; GALR2-expressing cells, agonist activation read-out; activation, %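 (tested at 5 µM)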; 140,000 compounds, 0.48% hits;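 active = above mean plus 3 SD of all compounds, about 5% in these data, not always enough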;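 note: 0% = vehicle buffer wells and 100% = reference agonist at full effect; tested in CHO reporter cells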
# Target sequence (O43603 whole entry, looked up): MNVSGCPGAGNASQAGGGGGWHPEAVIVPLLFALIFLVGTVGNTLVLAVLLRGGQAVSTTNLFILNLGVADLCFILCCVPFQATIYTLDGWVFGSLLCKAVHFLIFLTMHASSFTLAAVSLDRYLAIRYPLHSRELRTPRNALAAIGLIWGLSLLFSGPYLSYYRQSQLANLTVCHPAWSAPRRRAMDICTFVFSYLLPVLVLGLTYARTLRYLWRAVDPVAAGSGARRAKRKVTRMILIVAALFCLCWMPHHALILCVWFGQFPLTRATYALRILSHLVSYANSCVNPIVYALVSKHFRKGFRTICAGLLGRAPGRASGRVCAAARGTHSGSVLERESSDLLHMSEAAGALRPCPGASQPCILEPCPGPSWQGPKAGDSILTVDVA
# Insulin prom inh: inhibitors of insulin promoter-driven GFP, primary screen, imaging, TRM-6 cells (human fetal islet line), eGFP reporter, cell count; reporter expression induced with tamoxifen; inhibition, % at 2 µM; 130,000 compounds, 0.9% hits; AID 1273, 2008;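 active = inhibition above the mean plus 3 SD, with well images judged a real hit on visual review, cut at about 60% in these data, passing the limit was not always enough; inconclusive = inhibition over the cutoff but images rejected on review; inactive = inhibition not above the cutoff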
# PKD1 inh: inhibitors of human PKD1 kinase, biochemical, fluorescence polarization | Serine/threonine-protein kinase D1 (Homo sapiens), Q15139 | 200,000 compounds, 0.056% hits | inhibition, %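 (about 10 µM by stock and volumes)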 | PKD1 kinase fluorescence polarization assay;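 active = inhibition of 50% or more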;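 note: controls were vehicle for no effect and a reference inhibitor for full effect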
# Insulin prom inh cell count: second read-out of Insulin prom inh, no call of its own (marks repeat the call); normalized cell count, %; measured here: cell count, toxicity; reference of the scale not given here;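 cells exposed to compound for 48 h; stained nuclei by imaging scaled within each plate; lower means fewer cells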
# HSV replic up primary fold: second read-out of HSV replic up, no call of its own (marks repeat the call); fold increase; compound at 10 µM; measured here: primary screen fold increase 10 uM; tested in PC3 cells;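 GFP signal in the first replicate; 1 = infected wells without compound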
# * = called active by the depositor; i = inactive; ? = inconclusive; . = no result given.
SMILES,HSV replic up,HSV replic up primary fold,RGS16-Gao,GALR2 agonist,Insulin prom inh,Insulin prom inh cell count,PKD1 inh
COc1cccc(/C=C2\SC(N)=NC2=O)c1OS(=O)(=O)c1ccccc1,i,0.81,98,.,40,80,-2
CC(C)(C)c1ccc(C(CC(=O)O)NC(=O)c2ccccc2F)cc1 (stereo unspecified),i,0.94,99,.,.,.,6
Cc1ccc2oc(=O)c3cnn(CC(=O)NC4CCC(C)CC4)c3c2c1 (stereo unspecified),i,0.87,108,.,.,.,2
COCC(=O)Nc1nc2n(n1)C(c1ccc(Cl)cc1)CC(c1ccc(OC)cc1)N2 (stereo unspecified),i,1.2,102,-0.7,.,.,-9
COc1ccc(-c2nc3c(c(=O)c4ccccc4n3C)c(=O)n2Cc2ccccc2)cc1,i,1.1,100,1.4,43,100,0
CC1(c2ccc(OC(F)F)cc2)NC(=O)N(CC(=O)NC2CCCCC2)C1=O (stereo unspecified),i,1.1,96,-0.8,23,109,-10
Cc1cc(C)c2cc(C(=O)Nc3ccccc3)[nH]c2c1,i,0.93,94,.,.,.,.
O=C(Nc1ccc(Nc2ccccc2)cc1)N1CCOCC1,i,0.87,104,-3.7,17,95,6
COC(=O)C1C2C=CC3(CN(C(C)c4ccc(OC)cc4)C(=O)C13)O2 (stereo unspecified),i,0.98,106,-1.8,18,94,-12
COc1ccc(N(CC(=O)N2CCc3ccccc3C2)S(=O)(=O)c2c(C)nn(C)c2C)cc1,i,0.75,91,-2.7,.,.,-8
O=C1CCS/C(=N\N=C\c2ccc(Cl)cc2Cl)N1,i,0.96,93,.,.,.,.
O=C(CSCc1nc2c(nnn2Cc2ccc(F)cc2)c(=O)[nH]1)Nc1c(Cl)cc(Cl)cc1Cl,i,0.94,104,.,.,.,-2
Nc1c(NCCc2ccccc2)c2ccccc2oc1=O,i,0.82,107,.,.,.,-2
COc1cccc(N2CCN(c3ncnc4c3[nH]c3ccccc34)CC2C)c1 (stereo unspecified),i,0.59,107,-0.4,-23,122,-4
N#CCCN(CC(=O)O)S(=O)(=O)c1ccccc1,i,1,107,-0.8,8,110,5
CCN(CC)S(=O)(=O)c1ccc(C(=O)OCC(=O)Nc2sc3c(c2C#N)CCCCC3)cc1,i,1.1,104,-1.7,19,122,1
CCCCN(CC)CCNC(=O)CCC(=O)Nc1ccc2nc(N3CCN(C)CC3)cc(C)c2c1,i,0.83,104,.,.,.,-5
N#C/C(=C\c1ccc(Cl)cc1)c1nc2ncccc2[nH]1,i,0.94,-40*,-0.2,.,.,-17
c1ccc(Cc2ccc(OCCCNC3CCCC3)cc2)cc1,i,0.79,100,.,.,.,-1
NC(=O)N/N=C/c1cn(-c2ccccc2)nc1-c1cccnc1,i,1.2,104,.,.,.,.
CNC(=O)c1ccsc1NC(=O)c1ccc(S(=O)(=O)N2CCCc3ccccc32)cc1,.,.,107,2.5,17,121,-11
Cc1ccc(CNC(=O)CNS(=O)(=O)c2cccc3nsnc23)cc1,i,0.93,101,-1.9,.,.,-1
Cc1cccc(NC(=O)c2cccc3c2-c2ccccc2C3=O)n1,i,0.94,106,.,-15,103,-6
Cc1cc(NC(=O)c2ccco2)ncc1NC(=O)Cc1ccccc1,i,0.84,100,-1.7,52,132,-2
C/C=C\C(=O)Nc1cccc(C2=NOC3(C2)C[C@@H](C(N)=O)N(C(=O)c2ccccc2)C3)c1 (stereo partly specified),i,0.95,106,.,.,.,.
CCOc1cccc(-c2nnc(SCC(=O)Nc3cccc(OC)c3)n2N)c1,i,0.84,94,-0.1,-81,118,8
O=C(COC(=O)Cc1ccc(Br)cc1)NCc1ccc(F)cc1,i,0.89,97,.,14,127,0
C=CC(COCc1ccccc1)N(C(=O)OC(C)(C)C)S(=O)(=O)c1ccccc1Br (stereo unspecified),i,1,88,.,.,.,.
Cc1ccc2c(c1)N(CCC(=O)NCc1cccs1)C(=O)C(C)O2 (stereo unspecified),i,0.87,102,-1.6,4,90,-13
Cc1[nH]c2ccc(F)cc2c1CCN(Cc1ccncc1)C(=S)Nc1cccc(F)c1,i,0.75,98,.,-138,80,-1
COc1ccc2nc(NC(=O)c3ccoc3C)sc2c1,i,1,102,-1.9,-50,113,-7
Cc1ccccc1C(=O)NC(=S)NCCc1ccccc1,i,0.98,91,0.3,30,119,0
CCC(=O)Nc1ccc2c(c1)nc(CCN1CCN(c3ccccc3)CC1)n2C,i,1,101,.,.,.,.
COc1cc(OC)c(C2=Nc3ccc(Br)cc3C(c3ccccc3)N2CC(=O)NN)cc1OC (stereo unspecified),i,0.94,235,.,-14,92,2
Oc1ccc2ccccc2c1CN1CCN(c2ccccc2F)CC1,i,0.76,92,0.3,.,.,-9
O=C(NCC1CCCO1)c1ccc2c(c1)C(=O)N(C1CCCCC1)C2=O (stereo unspecified),i,0.93,102,-2.0,27,96,-5
CC1(C)Oc2ccc(/C=C/C(=O)N3CCOCC3)c(O)c2C(N2CCOCC2)C1O (stereo unspecified),i,1,107,-1.3,-12,162,-3
O=c1cc2c(nn1Cc1ccc(Cl)cc1)-c1ccccc1CC2,i,0.92,100,-0.4,10,112,2
CN(C)c1ccc(C(c2nnnn2C2CCCCC2)N2CCN(C(=O)c3ccco3)CC2)cc1 (stereo unspecified),.,.,.,-2.4,13,115,-20
O=C(CCNS(=O)(=O)c1cccs1)NCc1ccccc1,i,0.99,95,-0.3,15,73,-3
COCCNc1nc(=S)[nH]c2cc(OC)c(OC)cc12,i,1.1,115,-1.5,.,.,0
COc1cccc2sc(N(CCCN(C)C)C(=O)COc3ccc(Cl)cc3)nc12,i,1,106,.,24,101,-1
CN(C)c1ccc(N/C=C/C(=O)C(C)(C)C)cc1,?,.,95,-3.3,61,41,1
O=C(c1cnn2c(C(F)(F)F)cc(-c3ccco3)nc12)N1CCCc2ccccc21,i,0.85,99,-0.6,-29,111,-3
Cc1ccc2cc(C#N)c(SCc3nnc(-c4ccccc4[N+](=O)[O-])o3)nc2c1,i,0.88,109,-0.2,-237,77,-19
CC(C)(C)c1ccc(OCCOc2ccc(C(C)(C)C)cc2NC=O)c(NC=O)c1,i,0.82,112,.,.,.,.
CCc1ccc2ncc(S(=O)(=O)c3ccc(C)c(C)c3)c(N3CCCC3)c2c1,i,1,105,-0.1,-39,65,11
CCCCOC(=O)C1=C(C)Nc2ncnn2C1c1cc(OC)c(OC)cc1OC (stereo unspecified),i,1,111,-2.4,.,.,-6
COc1ccccc1OCCCC(=O)Nc1ccc([N+](=O)[O-])cc1Br,i,1.1,101,.,42,117,-2
c1ccc(-n2nc3ccccc3n2)cc1,i,1.1,98,-2.2,65,139,-4
O=C1CC(N2CCN(c3ccccc3Cl)CC2)C(=O)N1c1ccccc1 (stereo unspecified),i,0.98,104,-2.2,-60,113,1
CN(C)CCNc1c(N)c(=O)oc2ccccc12,i,1,102,.,57,124,-3
Cc1nc2ccccc2n1-c1nc(-c2ccco2)cc(C(F)(F)F)n1,i,0.48,101,0.3,.,.,-11
CN1CCN(S(=O)(=O)Cc2ccc(Cl)cc2)CC1,i,1.3,107,.,.,.,.
COC(=O)c1ccc(CSc2nnc(CS(=O)Cc3ccc(Br)cc3)n2-c2ccccc2)cc1 (stereo unspecified),i,0.92,103,0.1,-50,103,-8
CSc1nc(-c2ccc(N(C)C)cc2)c(C#N)c(=O)n1C,.,.,96,.,.,.,-1
CC(=O)N(C)c1ccc(NC(=O)/C=C/c2ccccc2Cl)cc1,i,1.1,97,-1.2,19,72,5
Cc1cccc(N2C(=O)C(O)=C(C(=O)c3cccs3)C2c2ccc(C(C)C)cc2)n1 (stereo unspecified),i,1.1,90,.,.,.,.
COc1ccc(-c2nnc(SCC(=O)Oc3ccc(C)cc3)o2)cc1,i,0.66,104,-2.6,50,97,-1
O=c1cc(N2CCc3ccccc32)[nH]c(=O)n1-c1ccc(Cl)cc1,i,1,102,.,29,92,-1

# Complete entries, quoted from the list.
# COC(=O)c1ccc(CSc2nnc(CS(=O)Cc3ccc(Br)cc3)n2-c2ccccc2)cc1 (stereo unspecified) in the list: HSV replic up = i; HSV replic up primary fold = 0.92; RGS16-Gao = 103; GALR2 agonist = 0.1; Insulin prom inh = -50; Insulin prom inh cell count = 103; PKD1 inh = -8
# CN(C)CCNc1c(N)c(=O)oc2ccccc12 in the list: HSV replic up = i; HSV replic up primary fold = 1; RGS16-Gao = 102; GALR2 agonist = .; Insulin prom inh = 57; Insulin prom inh cell count = 124; PKD1 inh = -3
# CN1CCN(S(=O)(=O)Cc2ccc(Cl)cc2)CC1 in the list: HSV replic up = i; HSV replic up primary fold = 1.3; RGS16-Gao = 107; GALR2 agonist = .; Insulin prom inh = .; Insulin prom inh cell count = .; PKD1 inh = .

# Continued.
SMILES,HSV replic up,HSV replic up primary fold,RGS16-Gao,GALR2 agonist,Insulin prom inh,Insulin prom inh cell count,PKD1 inh
CS(=O)(=O)N1CCc2cc(C(=O)OCC(=O)c3ccccc3)ccc21,i,0.96,109,-1.7,0,133,2
COc1ccc2[nH]c(=O)c(CN(Cc3nnnn3Cc3ccccc3)CC3CCCO3)cc2c1 (stereo unspecified),i,0.94,100,-3.0,-50,131,-12
CC1=NN(C(=O)c2ccccc2)C(O)(c2ccc(Br)cc2)C1 (stereo unspecified),i,0.98,101,.,.,.,.
CC(C)[C@H](Nc1ccc(S(=O)(=O)N2CCOCC2)cc1[N+](=O)[O-])C(=O)OCC(=O)N(C(C)C)C(C)C,i,0.84,109,-0.1,17,129,8
Cc1cccc(OCC(=O)Nc2cccc3nsnc23)c1,i,0.91,102,-2.7,6,149,-1
CCOC(=O)N1CCN(c2c(NCCCN(CC)CC)c(=O)c2=O)CC1,i,1.1,104,-2.6,38,161,-1
N#Cc1c(C(F)(F)F)cc(-c2ccccc2)nc1SCc1nc(N)nc(N2CCOCC2)n1,?,.,98,0.9,-251,84,4
CC(C)(C)n1nc2c(c1NC(=O)c1cc3ccccc3o1)CS(=O)(=O)C2,i,0.97,106,.,14,119,4
C=CCn1c(Cc2cccs2)nnc1SCC(=O)NCc1ccco1,i,0.87,35,-0.4,23,90,-6
N#CCCN1CCN(CCC#N)CC1,i,0.71,97,-1.8,-43,107,3
CC(C)(C)c1ccc(OC(=O)c2cccnc2)cc1,i,1,36,1.0,-29,145,1
COc1cc(C)c(NC(=O)C(=S)NCCc2ccccc2)cc1C,i,0.89,90,.,.,.,-3
Cc1cc(/C=N/NC(N)=O)c(C)n1-c1ccc(F)cc1,i,0.93,100,.,.,.,1
NC(=O)CCn1nc(-c2ccccc2)c2ccccc2c1=O,i,0.87,101,0.2,30,107,7
CC(C)OCCCNC(=O)CN1C(=O)/C(=C/c2ccccc2)Sc2ccccc21,i,0.9,96,0.1,-78,66,5
CCc1cc(/C(Cc2csc(C)n2)=N/O)c(O)cc1O,i,0.93,100,-1.7,-41,62,4
Cc1cc(C)c(OCC(=O)Nc2nnc(-c3ccco3)o2)c(C)c1,i,1.1,102,.,.,.,3
CC(=O)N1CCc2cc(S(=O)(=O)NC(C(=O)NCc3ccccc3)C(C)C)ccc21 (stereo unspecified),i,1.1,102,-0.4,-38,81,-20
O=c1c2ccccc2nc2n1C(CSc1ccccc1)CS2 (stereo unspecified),i,1,101,.,-40,71,-3
C=CCn1c(SCC(=O)c2ccc(CNC(C)=O)o2)nc2scc(C3CC3)c2c1=O,i,0.96,100,-0.9,.,.,-6
Cc1ccc(-c2nc3cnccn3c2Nc2ccc3c(c2)OCCO3)o1,i,0.82,97,0.0,.,.,-12
O=C(NCc1ccc2c(c1)OCO2)C(c1ccco1)N(C(=O)c1csnn1)c1ccccc1 (stereo unspecified),i,0.89,100,-1.8,-300,93,4
COc1ccccc1Cn1c(=O)[nH]c2cccnc21,i,1,100,0.0,.,.,1
Cc1ccccc1OCCNC(=O)CNC(=O)c1ccccc1O,i,1,104,-2.7,60,135,-8
CN1CCC(=NNC(=O)C(=O)NC(C)(C)C)CC1,i,0.71,100,-2.0,-27,77,-7
O=C(Nc1ccccc1N1CCOCC1)C1(c2ccc(Cl)cc2)CCC1,i,1.1,99,.,.,.,0

# Assay outcomes as filed in PubChem.

# Hits appear at their usual frequency; overall some 1.3% were active at least once.
